Ecoli rRNA inh – selective bacterial rRNA inhibition in E. coli | E. coli WT GFP vs humanized-ribosome RFP mutants, fluorescence, 24 h; stronger effect = lower value; DMSO median 0, no signal -100 | GFP signal change (wild-type ribosome), % (concentration not given with the values) | 350,000 compounds, 1.6% hits;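 active = significant combined selectivity score with lowered wild-type GFP, culture density cut under 30%, mutant RFP and density less affected; inactive = any of these conditions unmet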; also: one replicate is shown; some compounds called inactive have numbers as strong as hits
ALR inh – human ALR oxidase inhibition via reduced H2O2. purified ALR, DTT oxidation, H2O2 HRP-luminol luminescence. inhibition, % (test concentration not listed). 290,000 compounds, 3.8% hits;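 active = mean and each replicate at 75% or more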;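 also: stock transfer was 7.5 nL into about 7.5 µL; 0% = neutral wells and 100% = wells with inactivated enzyme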
Target sequence (P55789 whole entry, looked up): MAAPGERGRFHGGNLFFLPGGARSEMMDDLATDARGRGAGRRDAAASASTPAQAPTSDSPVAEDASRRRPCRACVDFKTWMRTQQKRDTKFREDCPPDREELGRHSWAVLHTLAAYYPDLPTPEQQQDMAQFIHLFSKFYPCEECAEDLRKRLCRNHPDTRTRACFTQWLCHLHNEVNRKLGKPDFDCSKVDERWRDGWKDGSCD
HNF4A DNA FP – change in binding of human HNF4 alpha to DNA; P41235; HNF4a-FITC DNA binding, fluorescence polarization, 1 h; activity change, % at 10 µM; 360,000 compounds, 0.3% hits; AID 1224865; in the data active = activity change above about 30%, passing the limit was not always enough;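 also: controls were the assay level and a saturating level of protein; the project sought stronger binding though the title names inhibitors; some compounds called inactive have numbers as strong as hits; positive values seem to mean higher polarization but the record does not say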
Ecoli growth – E. coli growth inhibition; Escherichia coli growth, OD600, 23 h; stronger effect = lower value; OD600 absorbance (test concentration not listed); 330,000 compounds, 0.21% hits;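 active = OD600 absorbance below the run mean of sample wells minus 3.6 SD, in any replicate, cut at about 0.56 in these data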;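 also: stock transfer was 300 nL into about 60 µL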
AF4-AF9 inh – inhibitors of human MLL-AF4/AF9 interaction; P42568; AlphaScreen, biotin-AF4 peptide binding to FLAG-AF9; inhibition, % at 10 µM; 350,000 compounds, 0.47% hits; AID 651704;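 active = every replicate reaching a set inhibition limit, whatever the replicate mean, cut at about 25% in these data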;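 also: 0% = plate neutral control median and 100% = total signal loss; the record names both 10 and 1 µM as test concentration; the first replicate is given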
Target sequence (P42568 whole entry, looked up): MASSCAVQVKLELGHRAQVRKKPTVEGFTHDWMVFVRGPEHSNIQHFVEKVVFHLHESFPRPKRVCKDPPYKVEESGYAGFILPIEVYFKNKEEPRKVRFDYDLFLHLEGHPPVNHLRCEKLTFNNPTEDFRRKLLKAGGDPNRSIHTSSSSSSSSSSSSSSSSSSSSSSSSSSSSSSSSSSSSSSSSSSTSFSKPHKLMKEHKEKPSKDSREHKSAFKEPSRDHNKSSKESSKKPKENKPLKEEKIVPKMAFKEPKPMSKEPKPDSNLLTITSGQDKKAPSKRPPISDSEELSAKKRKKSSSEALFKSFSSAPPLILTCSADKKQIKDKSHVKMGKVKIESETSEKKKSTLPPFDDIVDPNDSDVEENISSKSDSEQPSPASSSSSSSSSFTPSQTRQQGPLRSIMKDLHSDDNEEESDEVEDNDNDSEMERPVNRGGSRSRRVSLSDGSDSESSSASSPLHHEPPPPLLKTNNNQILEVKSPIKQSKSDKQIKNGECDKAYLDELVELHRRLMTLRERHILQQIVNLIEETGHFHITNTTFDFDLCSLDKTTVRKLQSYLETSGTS
Vif A3G – HIV-1 Vif–A3G interaction blockers – biochemical, TR-FRET, GST-Vif 1-94, biotin-A3G peptide, dose response retest, primary screen (AID 1117319) | inhibition, %, or IC50 in µM where a hit was titrated | 260,000 compounds, 0.57% hits | TR-FRET GST-Vif / biotin-A3G peptide binding; higher % means a stronger effect; test concentration not given here; strong numbers were not always called active;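 active = above the screen mean plus three standard deviations and confirmed in dose response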;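 also: Vif residues 1-94 fused to GST binding biotinylated APOBEC3G peptide 110-148; 0% = full assay without inhibitor and 100% = GST in place of GST-Vif; retest series ran down from 100 µM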
FGF22 binding – binders of recombinant human FGF22 by thermal shift | Q9HCT0 | SYPRO orange fluorescence; percent of sucrose octasulfate shift, DMSO zero | calls only at 9.99 µM | 340,000 compounds, 1.5% hits | AID 651658;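 active = melting point raised past a set limit in the mean and every replicate; three in four hits are not shown here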
Target sequence (Q9HCT0 whole entry, looked up): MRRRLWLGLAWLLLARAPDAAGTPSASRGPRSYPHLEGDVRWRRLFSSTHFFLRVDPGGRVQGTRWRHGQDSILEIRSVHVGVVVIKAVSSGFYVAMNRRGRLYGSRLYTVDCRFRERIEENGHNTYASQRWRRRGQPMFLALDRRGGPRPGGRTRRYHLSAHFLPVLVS
Ecoli rRNA inh OD600 – second read-out of Ecoli rRNA inh, no call of its own (marks repeat the call); OD600 change, %; measured here: OD600 growth;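 optical density of the mix in the first replicate; 0 = DMSO median and -100 = no signal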
Ecoli rRNA inh RFP – further read-out of Ecoli rRNA inh, marked with its call; RFP signal change, %; measured here: RFP humanized mutant strains;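 first replicate; 0 = DMSO median and -100 = no signal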
An asterisk follows results filed as active; i = inactive; / = not tested or not shown. Not all compounds are listed; count on the stated rates, not on these rows.

SMILES	Ecoli rRNA inh	Ecoli rRNA inh OD600	Ecoli rRNA inh RFP	ALR inh	HNF4A DNA FP	Ecoli growth	AF4-AF9 inh	Vif A3G	FGF22 binding
O=C(Cc1cccc(C(F)(F)F)c1)Nc1ccc(S(=O)(=O)N2CCCC2)cc1	-1	-25	4.2	-2	2.2	0.65	-1.0	2%	i
COc1ccc2c3c(n(C)c2c1)[C@H](CO)N(C(=O)Nc1ccc(F)cc1)CC31CN(Cc2ccccn2)C1	3	-5	-3.5	/	/	/	2.1	/	i
Cc1ccccc1OCCC(=O)N1CCN(S(=O)(=O)c2ccc(F)cc2)CC1	-4	10	-0.8	-2	0.2	0.69	-2.1	/	i
Cc1cc(C)n(-c2ccc(NC(=O)C3CCCCN3C(=O)c3cc(C)oc3C)cc2)n1 (stereo not drawn)	-1	-3	1.7	2	-2.7	0.71	0.8	/	i
COc1cc(CN2CCc3ccccc3C2)ccc1O	11	9	-11	13	-1.4	/	-2.3	-5%	i
CO/N=C/C(c1ccc(Cl)nc1)S(=O)(=O)c1ccccc1 (stereo not drawn)	-3	3	-2.0	5	-2.4	/	0.0	-1%	i
COC(=O)c1cc(C(=O)OCC(=O)c2ccc[nH]2)cc([N+](=O)[O-])c1	17	17	5.6	0	-0.5	0.69	-1.0	-2%	i
C[C@H]1CN([C@@H](C)CO)C(=O)Cc2cc(NS(=O)(=O)c3cn(C)cn3)ccc2O[C@H]1CN(C)S(=O)(=O)c1cn(C)cn1	1	2	-1.2	/	/	/	-0.2	/	i
Cc1ccccc1S(=O)(=O)N[C@@H]1CC[C@H](CCn2cc(Cc3ccccc3)nn2)O[C@@H]1CO	-4	-11	-1.1	/	/	/	-0.4	/	i
COc1ccc(N=C2C(=Nc3ccc(OC)cc3)N(c3ccc(N(C)C)cc3)C(=S)N2c2ccc(OC)cc2)cc1	8	6	-6.2	-9	2.3	0.76	0.1	11%	i
CCOC(=O)c1c(C)c(C#N)c2c3ccccc3ccn12	/	/	/	5	-1.6	0.69	/	-8%	/
COc1ccc(CN2C(=O)C(=O)N(CC(N)=O)C2=O)cc1	24	14	3.6	9	-8.0	0.72	-0.6	3%	i
O=C(c1ccc(Cn2cc(Br)cn2)cc1)N1N=C(C(F)F)CC1(O)C(F)F (stereo not drawn)	-34	-47	-15	-1	-0.9	0.68	1.6	/	i
C=CCN(CC=C)C(=O)Cc1ccc(F)cc1	/	/	/	/	-8.1	0.71	/	24%	/
Cc1cccc(C(=O)O/N=C(\N)c2ccc(Cl)cc2)c1	16	21	2.8	1	0.7	0.68	-8.9	5%	i

Three entries already listed, ordered by the number in Ecoli rRNA inh OD600, lowest first:
SMILES	Ecoli rRNA inh OD600
COc1ccc(N=C2C(=Nc3ccc(OC)cc3)N(c3ccc(N(C)C)cc3)C(=S)N2c2ccc(OC)cc2)cc1	6
COc1ccc(CN2C(=O)C(=O)N(CC(N)=O)C2=O)cc1	14
COC(=O)c1cc(C(=O)OCC(=O)c2ccc[nH]2)cc([N+](=O)[O-])c1	17

Next section:
SMILES	Ecoli rRNA inh	Ecoli rRNA inh OD600	Ecoli rRNA inh RFP	ALR inh	HNF4A DNA FP	Ecoli growth	AF4-AF9 inh	Vif A3G	FGF22 binding
O=C(CN1CCN(S(=O)(=O)/C=C/c2ccccc2)CC1)Nc1ccc(N2CCOCC2)cc1	-2	-7	0.1	10	1.0	0.71	4.4	/	i
CCCCCN(C(=O)CN(C)Cc1ccc(OC)cc1OC)c1c(N)n(CCCC)c(=O)[nH]c1=O	7	3	1.2	-5	-0.9	0.7	/	4%	/
CC1(C)O[C@@H]2[C@H](O1)[C@@H](CO)O[C@H]2n1c(N2CCCCC2)nc2c(N)ncnc21	3	6	-0.7	1	-2.2	/	1.3	/	i
COc1cccc2c1C1COC3C4CC(C(=O)O)C(C(C2)N13)N4C (stereo not drawn)	10	8	1.5	/	-1.8	/	-2.4	-11%	i
CCOC(=O)CNc1nc(OCC#N)nc(N2CCOCC2)n1	/	/	/	-3	3.6	0.7	/	15%	/
CNc1nc(Nc2ccc(C)c(Cl)c2)c2cnn(C)c2n1	-16	-14	1.5	/	1.5	0.63	-32	-15%	i
COC(=O)c1c(C)nc(C)c(C(=O)OC)c1-c1ccc(OC)c(OC)c1	7	5	-0.7	-1	-0.7	0.67	-1.3	-4%	i
Cn1c(-c2ccccc2F)cc2onc(-c3ccccc3)c2c1=O	-19	-36	-9.3	/	-5.3	0.63	-6.0	/	i
O=C(/C(=N/O)n1cncn1)c1ccccc1Cl	27	8	0.3	-6	4.8	/	-2.8	/	i
CCOc1ccc(S(=O)(=O)NCCOC)cc1C	/	/	/	0	1.6	0.67	/	5%	/
COc1ccc(CCNc2nc(C)cc(=O)[nH]2)cc1OC	/	/	/	4	3.4	0.66	/	-6%	/
Cc1ccc(Nc2ncnc3ccccc23)cc1	2	-1	-5.1	7	-3.2	0.63	0.5	9%	i
C[C@H]1CN([C@@H](C)CO)C(=O)Cc2cc(NC(=O)Nc3ccc4c(c3)OCO4)ccc2O[C@@H]1CN(C)C(=O)Nc1ccc2c(c1)OCO2	2	-4	-0.5	/	/	/	1.2	/	i
COCC(=O)N1CCCCN2[C@H](CO)[C@H](c3ccc(-c4ccc(F)cc4)cc3)[C@@H]2C1	-1	5	-0.9	/	/	/	-2.8	/	i
O=C1CCCN1CCC1CCN(C2CC(=O)N(Cc3ccc(N4CCCC4=O)cc3)C2=O)CC1 (stereo not drawn)	10	2	-7.7	-5	-3.2	0.69	-1.5	-2%	i
Cc1cc2ncn(C(=O)c3c(-c4ccccc4Cl)noc3C)c2cc1C	/	/	/	-1	1.9	0.7	/	6%	/
Cc1cccc(-n2ccnc2SCC(=O)Nc2ccc3c(c2)OCCO3)c1	/	/	/	/	1.2	0.79	/	0%	/
COc1cccc(-c2ccc3n(c2=O)C[C@@H]2[C@@H](CO)[C@H](C(=O)N4CCCCC4)N(C)[C@H]32)c1	1	-3	0.6	/	/	/	-1.9	/	i
CC(C)(C)c1ccc(C(=O)N2CCC(C(=O)NCC3CCCO3)CC2)cc1 (stereo not drawn)	/	/	/	-22	4.2	0.68	/	27%	/
CCSc1cc(N2CCCC2)nc(-c2cccc(C)c2)n1	14	-4	2.3	1	0.3	0.7	-5.7	/	i
Cc1cc([N+](=O)[O-])nn1CC(=O)NNC(=S)Nc1ccc(F)cc1	/	/	/	16	-2.4	/	/	3%	/
O=C(COC(=O)C1CCN(c2ccc(C(F)(F)F)cn2)CC1)c1ccc(Cl)cc1	-10	-11	-3.1	-7	-0.1	0.72	-1.6	-4%	i
CC1=CCC2C(=O)N(Cc3ccccc3)C(=O)C2C1 (stereo not drawn)	/	/	/	-4	-0.4	0.69	/	13%	/
COc1ccc(OC)c2sc(Cl)nc12	3	0	0.0	2	-0.6	0.66	-1.5	-4%	i
C[C@@H]1CCCCO[C@H](CN(C)Cc2ccc(C(=O)O)cc2)[C@@H](C)CN([C@H](C)CO)C(=O)c2cc(NC(=O)c3ccccc3)ccc2O1	1	1	-2.0	/	/	/	-3.2	/	i
COCCNC(=O)CCSc1nc(-c2ccc(OC)cc2)cc(C(F)(F)F)n1	/	/	/	-1	3.1	0.71	/	-1%	/
CCOC(=O)N1CCC(NC(=O)c2ccc(CS(=O)c3cccc(Cl)c3)o2)CC1 (stereo not drawn)	1	-6	-4.0	-5	2.7	0.7	-1.6	/	i
Cc1cnc(NC(=O)Cc2ccc(S(=O)(=O)N3CCOCC3)s2)s1	17	7	7.0	92*	-2.5	/	5.8	-8%	i
Cc1ccccc1/C=N/Nc1ncnc2nc[nH]c12	2	-4	0.0	27	2.0	/	-10	/	i
C[C@@H]1CN([C@@H](C)CO)C(=O)c2cccc(NS(C)(=O)=O)c2O[C@H]1CN(C)S(=O)(=O)c1cccs1	5	10	0.3	/	/	/	-0.1	/	i
COC(=O)CSc1nc(NC(C)C)nc(N2CCOCC2)n1	/	/	/	-12	-1.9	0.75	/	5%	/
CCOc1ccc(NC(=O)C2CCC(CNc3c(N4CCOCC4)c(=O)c3=O)CC2)cc1 (stereo not drawn)	16	11	-0.5	/	1.8	0.69	2.1	3%	i
Cc1cccc(C)c1NC(=O)c1sc(N)nc1-c1ccccc1	-12	-7	-3.1	/	2.5	0.66	1.3	-4%	i
CC=Cc1ccc2n(c1=O)C[C@H]1[C@H](CO)[C@@H](C(=O)NCC3CC3)[C@@H]2N1CCC (mixture of isomers)	0	-1	-1.9	/	/	/	-0.8	/	i
Cc1ccc2c(c1)c1c(n2CC(O)CN2CCCCCC2)CCCC1 (stereo not drawn)	0	-6	3.3	27	-1.6	0.66	35*	/	i
CC(C)C(NC(=O)C1CCC(C(C)(C)C)CC1)C(=O)NCCc1ccc(S(N)(=O)=O)cc1 (stereo not drawn)	-2	4	0.5	-12	0.5	0.69	-9.7	-7%	i
Cc1cccc(-n2nnc(C(=O)NCc3ccccc3)c2N)c1	/	/	/	6	1.8	0.72	/	28%	/
CCNC(=O)[C@H]1[C@H](CO)[C@H]2Cn3c(ccc(/C=C/c4ccccc4)c3=O)[C@@H]1N2C(=O)c1ccncc1	-1	8	1.6	/	/	/	-2.9	/	i
COc1ccc(CCC(=O)NCc2cn3ccc(C)cc3n2)cc1	-3	1	-0.5	-7	1.9	0.76	-0.9	1%	i
CCN1[C@@H]2c3ccc(-c4ccccc4F)c(=O)n3C[C@H]1[C@H](CO)[C@H]2C(=O)N1CCOCC1	4	11	-0.9	/	/	/	0.7	/	i
O=C(NCCc1cccc(F)c1)C1CCN(S(=O)(=O)c2ccccc2)CC1	-4	-9	-0.9	-7	2.1	0.64	-0.6	-7%	i
CN(C)c1nc(Nc2ccc(Cl)cc2)nc(OCC#N)n1	-3	6	1.4	-1	1.0	0.77	/	0%	/
COc1ccc(Nc2nc(N(C)c3ccccc3)nc(N)c2[N+](=O)[O-])cc1	-2	0	2.1	-2	0.3	0.64	-1.2	-6%	i
S=C1SCCCN1Cc1ccc(Cl)cc1	/	/	/	/	-1.3	/	-0.8	-3%	i
COc1cccc(N2CCN(c3ccc4nnc(CCC(=O)Nc5ccc(F)cc5)n4n3)CC2)c1	-2	-11	-1.0	80*	-0.1	0.65	1.6	/	i
CCC(CC)C(=O)N(C)c1c(C)nc2c(OCc3ccc(F)c(F)c3)cccn12	-52	-75	-13	/	-0.1	/	-1.7	/	i
C=CCn1cc(C(=O)OC)c(=O)c2cc(S(=O)(=O)N(CC)CC)ccc21	6	2	-8.6	23	13	0.67	-83	3%	i

Record cards, as listed above.
O=C(NCCc1cccc(F)c1)C1CCN(S(=O)(=O)c2ccccc2)CC1 reads Ecoli rRNA inh: -4; Ecoli rRNA inh OD600: -9; Ecoli rRNA inh RFP: -0.9; ALR inh: -7; HNF4A DNA FP: 2.1; Ecoli growth: 0.64; AF4-AF9 inh: -0.6; Vif A3G: -7%; FGF22 binding: i
COc1cccc(N2CCN(c3ccc4nnc(CCC(=O)Nc5ccc(F)cc5)n4n3)CC2)c1 reads Ecoli rRNA inh: -2; Ecoli rRNA inh OD600: -11; Ecoli rRNA inh RFP: -1.0; ALR inh: 80*; HNF4A DNA FP: -0.1; Ecoli growth: 0.65; AF4-AF9 inh: 1.6; Vif A3G: /; FGF22 binding: i
S=C1SCCCN1Cc1ccc(Cl)cc1 reads Ecoli rRNA inh: /; Ecoli rRNA inh OD600: /; Ecoli rRNA inh RFP: /; ALR inh: /; HNF4A DNA FP: -1.3; Ecoli growth: /; AF4-AF9 inh: -0.8; Vif A3G: -3%; FGF22 binding: i
